MT1-MMP promoter – inhibitors of MT1-MMP promoter transcription, cell-based, luciferase reporter, luminescence (AID 618); 87,000 tested, 0.62% active; calls from a first round at 10 µM; hits with a dose series show EC50 in µM; MT1-MMP promoter luciferase reporter cells, luminescence;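 active means over half of the reporter light lost at 10 µM or EC50 under 50 µM; inactive means the rest and hits that failed the dose series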;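 further: actives suppress MT1-MMP promoter-driven transcription so potencies describe inhibitors; HT1080 fibrosarcoma cells; overnight exposure; toxic or luciferase-blocking compounds were not removed from the actives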
WNV protease inh – blocks West Nile virus NS2B-NS3 protease activity; z-score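 (tested at a level between 10 and 100 µM)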; WNV NS2B-NS3 protease, fluorogenic substrate Ex360/Em465; stronger effect = lower value; P06935; 65,000 tested, 0.18% active;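 active means z-score at -3 or under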;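 further: score is relative to mean and spread of the compound wells of a plate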
Target sequence (P06935 1371-1501 limits assumed): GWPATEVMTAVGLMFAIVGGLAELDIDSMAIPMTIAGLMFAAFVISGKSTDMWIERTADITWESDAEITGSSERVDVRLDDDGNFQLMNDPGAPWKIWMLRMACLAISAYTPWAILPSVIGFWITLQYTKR
Target sequence (P06935 1502-1679 limits assumed): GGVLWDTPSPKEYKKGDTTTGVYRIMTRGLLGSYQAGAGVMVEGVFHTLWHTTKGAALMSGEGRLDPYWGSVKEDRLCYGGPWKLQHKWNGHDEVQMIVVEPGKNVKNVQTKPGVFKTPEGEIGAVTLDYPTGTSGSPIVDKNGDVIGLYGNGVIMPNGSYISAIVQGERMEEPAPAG
Hsc70 – Hsc70 inhibitors, probe displacement, primary screen, biochemical, fluorescence polarization (AID 568); 83,000 tested, under 10 active; Hsc70 fluorescence polarization, probe displacement; higher % means a stronger effect; strong numbers were not always called active; displacement, % at 20 µM; hits with a dose series show IC50 in µM;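 active means displacement above 50% without optical interference and an IC50 on retest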;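 further: ATPase domain with a fluorescein-tagged ATP probe; 0% = vehicle and 100% = excess ADP; read after one hour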
The depositor's hits bear a star; i = inactive; / = not tested or not shown; + = active, no number.

The opening 2 compounds (preview)
SMILES	MT1-MMP promoter	WNV protease inh	Hsc70
Cc1ccc(-c2noc(CCC(=O)Nc3ccccc3C)n2)cc1	i	-1.08	-1.6%
COC(=O)C1=C(C)N=C2SCCC(=O)N2C1c1cc(Br)ccc1OC (stereo unspecified)	i	-0.04	0.7%

The whole of this part, repeating the preview:
SMILES	MT1-MMP promoter	WNV protease inh	Hsc70
Cc1ccc(-c2noc(CCC(=O)Nc3ccccc3C)n2)cc1	i	-1.08	-1.6%
COC(=O)C1=C(C)N=C2SCCC(=O)N2C1c1cc(Br)ccc1OC (stereo unspecified)	i	-0.04	0.7%
Cc1ccccc1-c1nc(CN2CCC(C(=O)NCCCN3CC(C)CC(C)C3)CC2)c(C)o1 (stereo unspecified)	i	-0.25	-2.2%
Cn1c(C(=O)NCc2ccccc2)cc2oc3ccccc3c21	i	/	-0.2%
CCC(=O)N1CCc2cc(S(=O)(=O)NC(Cc3ccccc3)C(=O)NC3CCCCC3C)ccc21 (stereo unspecified)	i	/	-0.4%
CCN(CC)S(=O)(=O)c1ccc(N2CCN(S(=O)(=O)c3ccccc3C#N)CC2)nc1	i	/	-3.1%
Cc1cc(C)n(S(=O)(=O)Cc2ccccc2)n1	i	-0.07	-5.8%
CC1(C)NC(=O)N(CC(O)CN2C(=O)CCC2=O)C1=O (stereo unspecified)	i	-0.64	-4.1%
Cn1c(=O)[nH]c2cc3ccccc3cc21	i	-0.59	-0.7%
COC(=O)c1ccccc1Nc1ccccc1	i	1.12	0.6%
O=C(c1cccc(-n2cnnn2)c1)N1CC=C(c2ccccc2)CC1	i	1.05	2.4%
COCCCn1c(SCC(=O)NC2CCCC2)nnc1-c1ccco1	i	0.43	-3.8%
Cc1ccc(C)c(NC(=O)CC(NCCCN2CCOCC2)C(=O)O)c1 (stereo unspecified)	i	0.94	-3.8%
CCn1c(=O)cc(OCC(=O)Nc2nc(C)cs2)c2ccccc21	i	1.42	3.1%
CCOC(=O)c1c(C)[nH]c(N=Nc2ccccc2)c1C	i	/	0.8%
COc1ccc(CNC(=O)COC(=O)c2n[nH]c3ccccc23)cc1OC	i	-0.29	-1.7%
Cc1ccc(C(=O)OCC(=O)Nc2ccccc2)cc1NC(=O)c1ccco1	i	0.79	-1.4%
Nn1c(SCC(=O)Nc2ccc(S(=O)(=O)N3CCCC3)cc2)nnc1C(F)(F)F	i	0.7	0.7%
Cc1csc(SCc2c(C(=O)O)oc3ccccc23)n1	i	1.62	-1.0%
Cc1cc(Nc2ccccc2Br)n2nc(C)nc2n1	i	-0.01	-2.7%
CCN1CCN(C(=O)c2ccc(COc3ccc(Cl)cc3)o2)CC1	i	/	-3.1%
CCCCC(=O)NCc1ccc2c(c1)cc(C)n2C	i	-0.58	5.0%
Cc1ccc(S(=O)(=O)Nn2c(C)ccc2C)cc1	i	-0.07	3.1%
COc1cc(-c2noc(C3CCCN(S(=O)(=O)c4cccc(Cl)c4)C3)n2)cc(OC)c1OC (stereo unspecified)	i	1.48	5.8%
OCC1(C2=NOC(O)(C(F)(F)F)C2)CCCCC1 (stereo unspecified)	i	-0.92	-3.3%
Cc1ccccc1CNCc1cccnc1	i	/	1.8%
CC(=O)N1CCN=C1SCc1ccc(Br)cc1	i	0.18	3.5%
Cc1ccc(-c2nn(-c3ccccc3)cc2C2CC(c3cccs3)=NN2C(=O)CCC(=O)O)cc1 (stereo unspecified)	i	/	1.7%
CCOc1ccc(NC(=O)C2CCC(C)(C(=O)O)C2(C)C)cc1 (stereo unspecified)	i	0.77	10.9%
O=C(O)Cc1cc2c(s1)CCCCC2	i	0.00918	-4.8%
Cn1cccc1Cc1nnc(SCC(=O)Nc2cccc(F)c2)n1-c1ccc(F)cc1	i	-0.84	1.0%
COc1ccc(-c2nc(C#N)c(NCc3ccc(C)cc3)o2)cc1OC	i	0.27	-5.1%
COCCCNC(=O)C1CCN(c2ncccn2)CC1	i	0.19	-7.8%
Clc1ccc2nc3ccccn3c2c1	i	-0.25	0.7%
O=C(Cn1cnc2c(nnn2-c2ccccc2)c1=O)N1CCCc2ccccc21	i	-0.85	-2.2%
Cc1ccc(C)n1-c1sc2c(c1C#N)CCCC2	i	/	-0.7%
CCOc1ccccc1NC(=O)c1cc(CC(C)C)oc1C	i	1.84	-0.6%
COC(=O)c1cccc(COC(=O)c2ccccc2NC(=O)c2ccco2)c1	i	-1.22	3.6%
COc1ccc(NC(=O)C2CCN(C(=O)c3cccs3)CC2)c(OC)c1	i	/	0.7%
O=C(O)c1cccc(CSc2nnc(-c3ccco3)o2)c1	i	/	-2.8%
Cc1nnc(NC(=O)c2sc3ccccc3c2Cl)s1	+	-0.23	-8.5%
Cc1cccc(-c2nnc3sc(-c4ccccc4C)nn23)c1	i	0.26	-3.7%
COC(=O)c1ccc(Nc2nc(C)cc(C)n2)cc1	i	/	-4.2%
O=c1ccc2cc(S(=O)(=O)N3CCN(c4ccccc4)CC3)ccc2o1	i	-0.68	-2.1%
COC(=O)Nc1c(C)n(C)n(-c2ccccc2)c1=O	i	-0.75	-4.3%
O=C1NCCCC2c3c(cc(Br)c(O)c3Br)OC12N1CCOCC1 (stereo unspecified)	i	1.79	-0.9%
O=C(NC1CCCCCC1)c1c(O)c2ccccc2[nH]c1=O	i	0.38	7.8%
CCn1c(SCC(=O)N2CCC(C)CC2)nnc1-c1ccc(S(=O)(=O)N2CCN(C)CC2)cc1	i	/	-0.1%
CCCn1c2c(c(O)c(C(=O)Nc3ccc(OCC)cc3)c1=O)CCCC2	i	1.22	-0.5%
CS(=O)(=O)N(CC(=O)NC1CCCC1)Cc1ccc(Cl)cc1	i	/	-3.6%
COc1ccc(C(=O)c2c(C)oc3ccc(O)c(CN4CCOCC4)c23)cc1	i	1.83	-9.5%
COc1ccc(S(=O)(=O)N(C)c2c(C)n(C)n(-c3ccccc3)c2=O)cc1OC	i	-0.6	-3.9%
CCSC(SCC)[C@H](O)[C@@H](O)[C@H](O)[C@H](O)CO	i	-1.43	1.0%
CCCc1cc(=O)[nH]c(SCc2cc(C(=O)OC)c(C)o2)n1	i	0.04	0.9%
N#Cc1cn(CC(=O)N2CCCC2)c2ccccc12	i	0.04	-2.4%
COc1ccc(C(CNC(=O)c2cc(C)oc2C)N2CCOCC2)cc1 (stereo unspecified)	i	1.09	1.2%
CCOc1ccc(-c2nnc(-c3cccnc3)o2)cc1OCC	i	-0.95	0.2%
CCCOc1ccc(/C(O)=C2/C(=O)C(=O)N(CCN(C)C)C2c2ccc(OC)c(OC)c2)cc1 (stereo unspecified)	i	-0.02	-2.9%
CCOC(=O)/C(C#N)=C/c1cc(C)n(-c2ccccc2)c1C	i	/	1.3%
O=C(COc1ccc2ccccc2c1)NCCNC(=O)COc1ccc2ccccc2c1	i	/	1.3%
Other records
SMILES	MT1-MMP promoter	WNV protease inh	Hsc70
CCCCNC(=O)NS(=O)(=O)c1ccc(C(=O)OC(C)C)o1	i	-0.97	1.5%
CCN1CCN(CC(=O)Nc2cc(F)ccc2C)CC1	i	-0.27	-1.9%
CC(C)(C)n1ncc2c(=O)n(CC(=O)Nc3ccccc3)cnc21	i	0.24	0.8%
COc1ccc(C(=O)N(CN2CCCC2=O)c2ccc(C)cc2)cc1	i	0.32	-1.5%
CN1CSC2=C(C#N)C(c3cccc(OCc4ccccc4)c3)CC(=O)N2C1 (stereo unspecified)	i	-0.05	3.2%
Cc1ccc(Cn2ccc(NC(=O)c3cc(-c4ccc(Br)cc4)on3)n2)cc1	i	-0.2	-3.3%
COc1ccc(C)cc1S(=O)(=O)N(C)CC(=O)N1CCCCCC1	i	0.56	3.7%
CC(C)CNS(=O)(=O)c1ccc(CCC(=O)Nc2ccc3c(c2)OCO3)cc1	i	1.2	-0.9%
N#Cc1ccccc1Sc1ccccc1C(=O)OCC(=O)N1CCN(C(=O)c2ccco2)CC1	i	-0.93	-0.4%
CC(C)=CCC(C)(C)CNC(=O)NC1CCCCC1	i	0.4	2.8%
CC(=O)c1cc(-c2ccccc2)n(CC(=O)N2CCN(C3CCCC3)CC2)c1C	i	0.06	2.7%
CCC(C)n1c(=N)c(C#N)cc2c(=O)n3ccccc3nc21 (stereo unspecified)	i	/	0.5%
CC(C)Oc1cccc(C(=O)Nc2ccc(NC(=O)c3ccco3)cc2)c1	i	1.02	-4.1%
O=C1OCCC1Sc1nnc(-c2ccc(Br)cc2)o1 (stereo unspecified)	i	-0.33	1.7%
CCCCCn1c(=O)c(Cc2ccccc2)c(O)c2ccccc21	i	/	4.1%
c1ccc2c(-c3nn4nnnc4c4ccccc34)cccc2c1	i	/	-0.3%
CC1=C(CC/C(C)=N/NC(N)=S)C(C)(C)CCC1	i	/	-4.7%
Cn1c(/C=N/n2cnnc2)nc2ccccc21	i	-0.11	-1.6%
O=C1C(=O)N(CCN2CCOCC2)C(c2ccncc2)/C1=C(/O)c1ccc2c(c1)OCO2 (stereo unspecified)	i	-1.08	-4.0%
O=c1oc2ccc(Br)cc2cc1-c1nc2ccccc2o1	i	-0.57	-4.6%
O=C(Nc1cccnc1)c1ccc2snnc2c1	i	1.3	4.5%
CCOC(=O)c1c(-c2cccs2)csc1NC(=O)CN1CCOCC1	i	-0.21	3.2%
C=CCn1c(SCCC(=O)O)nc2c1c(=O)n(C)c(=O)n2C	i	-0.82	-3.1%
Cn1c(Cn2c(=O)sc3ccccc32)nnc1SCC(=O)N1CCOCC1	i	-0.63	3.8%
COCCN1CCN(c2cc(-c3ccccc3)nc3cc(-c4cccc(F)c4)nn23)CC1	i	/	-4.2%
CC(C)C(=O)Nc1c(C(=O)c2ccc(F)cc2)oc2ccccc12	i	-0.00665	2.1%
CC(=O)Nc1cccc(NC(=O)CSc2nnc(Cc3cccn3C)n2-c2ccc(F)cc2)c1	i	1.2	0.0%
CSc1n[nH]c(NCc2ccc(C)cc2)n1	i	/	1.6%
Cc1onc(-c2ccccc2)c1C(=O)Nc1ccc(-c2nnc3n2CCCCC3)cc1	i	0.79	5.3%
Cc1ccc(C2CC(c3ccc(F)cc3)Nc3nc(N)nn32)cc1 (stereo unspecified)	i	0.6	1.0%
O=C(O)CCC(=O)N1CCc2cc(S(=O)(=O)NCc3cccs3)ccc21	i	0.62	-1.6%
CCOc1ccc(C(C)=O)cc1COc1ccc(-n2cnnn2)cc1	i	-0.54	-0.7%
COc1ccccc1N1CCN(C(c2cccs2)C(C)NC(=O)c2cccs2)CC1 (stereo unspecified)	i	0.14	-3.8%
COc1ccc(N(CC(=O)NCc2cccs2)S(=O)(=O)c2c(C)nn(C)c2C)cc1	i	-0.23	-2.0%
CC1CCC(NC(=O)c2ccc(N3CCCC3=O)cc2)CC1 (stereo unspecified)	i	-0.1	1.0%
CCC(=O)N1CCNC(=O)C1CC(=O)Nc1ccc(C)c(Cl)c1 (stereo unspecified)	i	0.43	13.1%
Cc1cc(C)c(C#N)c(SCC(=O)NC2CC2)n1	i	-0.23	0.4%
Cc1nnc(SCCOC(N)=O)n1C	i	-0.85	-7.2%
CCSc1nnc(NC(=O)c2c(-c3ccccc3Cl)noc2C)s1	i	-0.54	8.3%
Cc1nnc(SCC(=O)Nc2ccc3c(c2)OCCO3)n1N	i	/	3.4%
CC(=O)c1cc2c(cc1NC(=O)CN1CCCCCCC1)OCO2	i	/	5.4%
Cc1cc(S(=O)(=O)Nc2cccc(O)c2)c(C)s1	i	0.41	-1.8%
CCCCOC(=O)/C(=C\c1ccc([N+](=O)[O-])o1)NC(=O)c1ccccc1	i	/	-4.6%
Cc1cc(C(F)(F)F)nc(NCc2ccc(F)cc2)n1	i	-1.25	-0.1%
Cc1cc(C)nc(-n2nc(C)c(Sc3ccc(F)cc3)c2N)n1	i	-0.35	-0.7%

Some values from the list.
Under WNV protease inh, CCSc1nnc(NC(=O)c2c(-c3ccccc3Cl)noc2C)s1 has the entry -0.54
Under Hsc70, CCCCOC(=O)/C(=C\c1ccc([N+](=O)[O-])o1)NC(=O)c1ccccc1 has the entry -4.6%

Molecules from the list above with an NH in an aromatic ring:
SMILES	MT1-MMP promoter	WNV protease inh	Hsc70
Cn1c(=O)[nH]c2cc3ccccc3cc21	i	-0.59	-0.7%
CCOC(=O)c1c(C)[nH]c(N=Nc2ccccc2)c1C	i	/	0.8%
COc1ccc(CNC(=O)COC(=O)c2n[nH]c3ccccc23)cc1OC	i	-0.29	-1.7%
O=C(NC1CCCCCC1)c1c(O)c2ccccc2[nH]c1=O	i	0.38	7.8%
CCCc1cc(=O)[nH]c(SCc2cc(C(=O)OC)c(C)o2)n1	i	0.04	0.9%
CSc1n[nH]c(NCc2ccc(C)cc2)n1	i	/	1.6%

Next structures follow:
SMILES	MT1-MMP promoter	WNV protease inh	Hsc70
Cc1ccccc1-n1c(SCC(=O)N2CCOCC2)nc(O)cc1=O	i	-1.2	2.6%
CCn1nc(C(=O)O)c(=O)c2cc3c(cc21)OCO3	i	-2.29	1.0%
O=c1onc(-c2cccs2)n1Cc1ccccc1	i	/	1.7%
O=S(=O)(Nc1ccc2c(c1)nc1n2CCN(Cc2ccccc2)C1)c1ccccc1	i	-1.89	-1.3%
CCOC(=O)N1CCN(C(=O)CSc2nnc(-c3ccccc3OC)o2)CC1	i	-0.78	-3.0%
Cc1ccc(S(=O)(=O)NCCC(=O)NCc2ccccc2)cc1	i	1.29	-2.2%
CCOc1ccc2nc(NC(=O)CN3CCN(C)CC3)sc2c1	i	/	5.3%

In the list so far, 3 have a CF3 group:
SMILES	MT1-MMP promoter	WNV protease inh	Hsc70
Nn1c(SCC(=O)Nc2ccc(S(=O)(=O)N3CCCC3)cc2)nnc1C(F)(F)F	i	0.7	0.7%
OCC1(C2=NOC(O)(C(F)(F)F)C2)CCCCC1 (stereo unspecified)	i	-0.92	-3.3%
Cc1cc(C(F)(F)F)nc(NCc2ccc(F)cc2)n1	i	-1.25	-0.1%
